Screening data (PubChem BioAssay)
MLL AF4-AF9 inh: inhibitors of human MLL-AF4/AF9 interaction | AlphaScreen, biotin-AF4 peptide binding to FLAG-AF9 | inhibition, % at 10 µM | 0.47% of 350,000 active;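 active = every replicate reaching a set inhibition limit, whatever the replicate mean, cut at about 25% in these data; inconclusive = mean inhibition reaches that limit but some replicates miss it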;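 also: 0% = plate neutral control median and 100% = total signal loss; the record names both 10 and 1 µM as test concentration; the first replicate is given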
Target sequence (P42568 whole entry, looked up): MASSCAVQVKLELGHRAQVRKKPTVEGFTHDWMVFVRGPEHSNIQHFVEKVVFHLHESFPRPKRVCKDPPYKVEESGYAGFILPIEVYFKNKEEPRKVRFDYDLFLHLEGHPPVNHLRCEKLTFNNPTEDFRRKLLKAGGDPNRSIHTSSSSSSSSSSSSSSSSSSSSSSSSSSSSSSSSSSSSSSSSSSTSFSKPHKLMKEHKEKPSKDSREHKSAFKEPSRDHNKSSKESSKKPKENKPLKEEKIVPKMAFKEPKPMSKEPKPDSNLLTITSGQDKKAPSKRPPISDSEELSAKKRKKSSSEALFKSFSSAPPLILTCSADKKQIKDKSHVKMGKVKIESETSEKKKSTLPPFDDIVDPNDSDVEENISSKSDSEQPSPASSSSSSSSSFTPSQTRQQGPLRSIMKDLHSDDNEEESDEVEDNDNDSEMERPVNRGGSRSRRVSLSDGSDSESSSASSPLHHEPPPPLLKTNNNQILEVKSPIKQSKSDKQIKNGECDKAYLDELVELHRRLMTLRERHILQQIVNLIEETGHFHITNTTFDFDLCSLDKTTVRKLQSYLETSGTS
T cruzi inh: blocks replication of Trypanosoma cruzi; T. cruzi beta-gal in NIH3T3, luminescence, 90 h; inhibition, % (test concentration not listed); AID 1885; 1.4% of 300,000 active;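 active = mean inhibition across valid replicates above about 55%, limit read from the data; inconclusive = mean below that limit but half or more replicates reach it; inactive = mean below it, under half of replicates reach it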;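 also: signal also drops with host cell toxicity which is not excluded here; 0% = plate median of DMSO wells and 100% = zero luminescence signal; higher percent means less beta-gal luminescence so fewer parasites; stock transfer was 50 nL into about 50 µL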
A1 inh: inhibitors of the anti-apoptotic protein A1, read as caspase activation; caspase activation, % (concentration not given with the values); MEF A1-2A-BIM cells, Caspase-Glo 3/7 luminescence, 3 h; percent of clofoctol response, vehicle zero; AID 2462; 0.066% of 330,000 active;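 active = over half of replicate activation scores above 10%, or exactly half above 10 with the replicate mean above 10; inconclusive = replicate mean below 10 yet half the replicates above 10; inactive = over half of replicates below 10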;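 also: wells of about 30 µL received 50 nL stock; many hits fall short of the cut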
rRNA inh HTS: inhibitors of bacterial rRNA selective over humanized ribosomes. AID 720706. E. coli WT GFP vs humanized-ribosome RFP mutants, fluorescence, 24 h; hits give low values; DMSO median 0, no signal -100. 1.6% of 350,000 active. GFP signal change (wild-type ribosome), % (no concentration beside the values);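 active = significant combined selectivity score with lowered wild-type GFP, culture density cut under 30%, mutant RFP and density less affected; inactive = any of these conditions unmet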; also: one replicate is shown; some compounds called inactive have numbers as strong as hits
Vif A3G: HIV-1 Vif–A3G interaction blockers – biochemical, TR-FRET, GST-Vif 1-94, biotin-A3G peptide, dose response retest, primary screen (AID 1117319); inhibition, %, or IC50 in µM where a hit was titrated; TR-FRET GST-Vif / biotin-A3G peptide binding; higher % means a stronger effect; test concentration not given here; strong numbers were not always called active; 0.57% of 260,000 active;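 active = above the screen mean plus three standard deviations and confirmed in dose response; inconclusive = results disagree or hit not tested in dose response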;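 also: Vif residues 1-94 fused to GST binding biotinylated APOBEC3G peptide 110-148; 0% = full assay without inhibitor and 100% = GST in place of GST-Vif; retest series ran down from 100 µM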
Calb FLC: affects C. albicans growth with fluconazole; C. albicans CaCi-2 (fluconazole-resistant clinical isolate) + fluconazole, Alamar Blue growth, 48 h; growth inhibition, % (concentration not given with the values); 0.57% of 300,000 active; AID 1979;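 active = most replicates above 75%; inconclusive = exactly half above 75%; inactive = most below 75%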;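 also: all wells also contain fluconazole at 8 µg/ml as a sub-toxic cotreatment; 0% = median of DMSO wells and 100% = median of geldanamycin control wells; wells of about 8 µL received 7.5 nL stock; the first replicate is given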
RanGTP-Impb inh: disruptors of Ran-importin-beta complex formation – biochemical, FRET, CFP-Ran, YFP-importin-beta, homogeneous, primary screen. cell-free CFP-Ran/YFP-importin-beta FRET ratio. inhibition, % (test concentration not listed). 1.1% of 300,000 active;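 active = most replicates above 15%; inconclusive = exactly half above 15%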;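 also: 0% = DMSO wells and 100% = Ran loaded with GDP instead of GTP; wells of about 40 µL received 100 nL stock; the first replicate is given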
Beta apoptosis: beta cell apoptosis inhibition | 0.8% of 300,000 active | protection from apoptosis, % (concentration not given with the values) | AID 435005 | INS-1E cytokine-induced death, ATP luminescence, 48 h; percent of positive-control rescue, neutral wells zero;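 active = all replicates at 75% or more, or half of them and the mean; inconclusive = half reach 75% but not the mean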;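 also: 0% = cytokine-treated negative control wells and 100% = positive control rescue; higher means more ATP so stronger rescue from cytokine killing; wells of about 40 µL received 100 nL stock; the first replicate is given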
rRNA inh HTS OD600: further read-out of rRNA inh HTS, marked with its call; OD600 change, %; measured here: OD600 growth;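 optical density of the mix in the first replicate; 0 = DMSO median and -100 = no signal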
rRNA inh HTS RFP: second read-out of rRNA inh HTS, no call of its own (marks repeat the call); RFP signal change, %; measured here: RFP humanized mutant strains;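 first replicate; 0 = DMSO median and -100 = no signal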
Active calls of the source: *; ? = inconclusive; . = no result given; & = joins results of further samples; ! = a repeat was not active. A portion of the library (hit frequency here may not be typical).

The first two records as a preview:
SMILES	MLL AF4-AF9 inh	T cruzi inh	A1 inh	rRNA inh HTS	rRNA inh HTS OD600	rRNA inh HTS RFP	Vif A3G	Calb FLC	RanGTP-Impb inh	Beta apoptosis
NC(=S)N/N=C1\CC(c2ccc3c(c2)OCCCO3)Oc2ccc(F)cc21 (stereo not given)	-1.7	37	-0.6	-8	-1	13	17%	-1	-1.3	44
O=C(Nc1ccccc1)Nc1ccc(Nc2ccccc2)cc1	0.6	24	-4.3	6	23	-3.7	.	-11	4.8	-2

This part in full, from the first entry:
SMILES	MLL AF4-AF9 inh	T cruzi inh	A1 inh	rRNA inh HTS	rRNA inh HTS OD600	rRNA inh HTS RFP	Vif A3G	Calb FLC	RanGTP-Impb inh	Beta apoptosis
NC(=S)N/N=C1\CC(c2ccc3c(c2)OCCCO3)Oc2ccc(F)cc21 (stereo not given)	-1.7	37	-0.6	-8	-1	13	17%	-1	-1.3	44
O=C(Nc1ccccc1)Nc1ccc(Nc2ccccc2)cc1	0.6	24	-4.3	6	23	-3.7	.	-11	4.8	-2
CN(C)CCNc1nc2sc3c(c2c(=O)n1-c1ccccc1)CCCCC3	4.6	40	0.4	-4	-6	1.7	12%	3	2.9	-9
Cc1c(Br)c([N+](=O)[O-])nn1C(C)C(=O)Nc1c(C)n(C)n(-c2ccccc2)c1=O (stereo not given)	.	24	0.5	.	.	.	6%	-1	-1.9	0
CC(C)C[C@H](NC(=O)C1CC(=O)N(c2ccc3c(c2)OCO3)C1)C(=O)NC1CCCC1 (stereo not given in full)	-1.9	-9	0.4	2	10	-2.6	.	-5	-1.4	-2
O=C(CCCNC(=O)c1ccc(Cl)cc1)Nc1ccc(Br)cc1	-2.6	-1	1.1	-7	-22	6.5	.	3	-0.3	-1
Nc1[nH]c(=O)[nH]c(=O)c1N=Nc1ccc(C(=O)O)cc1	1.3	3	-3.8	11	13	0.0	-1%	2	-1.1	-3
Cc1ccc(N(CCC#N)C(=O)COC(=O)c2ccccc2SCC(=O)N2CCCC2)cc1	-0.2	7	-0.4	-10	-11	-2.4	.	-5	.	-4
O=C(CCN1CCCCC1)c1ccc2c(c1)OCCO2	.	2	-0.2	.	.	.	-2%	-1	-2.6	.
O=C(Cn1cncn1)N1CCN(c2ccc(F)cc2)CC1	-3.7	-18	0.4	7	7	-7.8	4%	7	0.6	0
COC(=O)c1ccc(CSc2ccc3nnc(-c4ccccn4)n3n2)o1	2.7	4	0.4	-7	-5	-3.4	3%	-8	-4.0	1
COC(=O)C(Cc1ccccc1)NC(=O)CCNC(=O)c1ccc(Br)cc1 (stereo not given)	0.6	0	0.4	-3	-4	-0.8	.	-11	4.2	1
COc1ccc(NS(=O)(=O)c2ccc(C)c(C(=O)N3CC(C)OC(C)C3)c2)cc1 (stereo not given)	0.5	4	1.1	4	2	0.3	1%	3	5.9	-4
COCCNC(=O)CS(=O)Cc1nc(-c2ccccc2C)oc1C (stereo not given)	-7.1	0	0.2	-1	-1	1.1	8%	-1	4.6	-8
NC(=O)N1OCC2COc3ccc4ccccc4c3C21 (stereo not given)	.	-8	0.0	.	.	.	31%	-12	-2.6	-9
Cc1ccc(Nc2nc(-c3cccnc3)cs2)cc1Cl	-1.2	59*	-1.1	-9	3	0.2	2%	9	-0.9	0
CCOc1ccc(C(=O)Nc2ccccc2C(=O)O)cc1	-1.3	-3	-7.8	-28	-36	-11	2%	-24	3.2	3
COc1ccc(N2C(=O)C3CCCN3C2c2ccc(C)o2)cc1 (stereo not given)	-2.5	-20	0.5	7	26	-1.5	-4%	-3	-1.8	-5
CC1CN(c2nc(-c3ccccc3)nnc2-c2ccccc2)CC(C)O1 (stereo not given)	.	13	0.0	.	.	.	-1%	7	1.6	-7
C[C@H](CO)N1C[C@H](C)[C@@H](CN(C)S(=O)(=O)c2ccc(F)cc2)Oc2c(NC(=O)NC3CCCCC3)cccc2C1=O	49*!	.	-0.4	-7&-7	-20&-9	0.8&6.9	.	.	.	0
O=C(CSc1nnc(-c2ccc(O)cc2)n1Cc1ccccc1)NNC(=O)c1ccc(Br)cc1	.	-9	-0.2	.	.	.	2%	-2	4.1	0
COc1ccc(CNC(=O)OCCN2CCN(Cc3ccccc3)CCC2=O)cc1	-0.9	-6	0.9	0	-8	-2.8	-6%	-9	1.3	1
CCn1c(NC(=O)c2ccccc2)c(-c2cccs2)c(=O)c2ccccc21	.	-15	-1.5	.	.	.	?	6	0.3	0
N#Cc1c(SCC(=O)Nc2ccc(Cl)cc2Cl)sc2c(O)cc(=O)[nH]c12	-13	-15	-0.4	-4	-4	5.2	5%	-1	1.0	-4
O=c1c2ccccc2nc(-c2ccccc2)n1/N=C/c1ccc([N+](=O)[O-])cc1	.	-7	0.5	.	.	.	20%	-2	-1.9	20
O=c1cc(-c2ccc(Cl)cc2)[nH]c2ccccc12	.	12	0.2	.	.	.	.	?	3.1	17
Cc1cccc(Oc2nc(-c3ccccn3)nc3ccccc23)c1	2.5	-3	-1.7	-18	-32	-4.0	.	-4	0.1	81*
CN(C)/C=N/NC(=O)c1ccccc1	-0.9	-10	-1.1	8	-4	-1.2	-1%	0	-4.3	-14
CCCc1ccc(C(=O)Cn2nc(C(=O)O)c3ccccc3c2=O)cc1	-8.0	-8	0.2	15	18	13	-3%	5	-3.0	-7
CCOc1ccc(/C=N/NC(=O)C(C)N(c2ccc(OC)cc2)S(C)(=O)=O)cc1 (stereo not given)	.	-1	0.0	.	.	.	-6%	0	-4.4	-4
CC(C)Oc1ccc(C(CC(=O)O)c2ccc(F)cc2)cc1 (stereo not given)	-1.0	-3	-0.5	-9	6	8.2	27%	0	-1.0	1
O=C1[C@@H]2C(c3cccnc3)=NO[C@@H]2C(=O)N1c1ccc(Br)cc1	1.0	-15	0.2	5	9	17	9%	4	0.9	-7
O=S(=O)(c1ccccc1)n1nc(-c2ccccc2)nc1NCc1ccco1	.	-5	-0.3	.	.	.	0%	-2	-3.1	-4
COc1ccc(CCn2ccc(O)c(Cc3ccc(Cl)cc3Cl)c2=O)cc1OC	-4.4	2	1.2	15	24	0.5	?	5	1.4	-4
COc1ccc(CC(=O)NNC(=O)c2ccco2)cc1OC	0.6	7	-0.6	9	13	-1.4	.	-7	-0.8	-5
NC(=O)NC(=O)COC(=O)/C=C/c1cccs1	-6.8	4	0.4	12	-1	-1.4	31%	-2	3.5	-4
CN(C)CC/C=C1/c2cc(F)ccc2Sc2ccc(Cl)cc21	37*	37	0.6	-50*	-40*	-15*	.	-27	6.3	-1
Cc1ccc(C)c2[nH]c(=O)c(CCNC(=O)c3cccs3)cc12	1.8	3	1.0	7	7	-0.5	.	18	-0.2	.
Nc1cc(=O)[nH]c(SCCSc2ccc(F)cc2)n1	?	-2	0.0	-3	-6	0.8	.	8	-3.0	-1
COc1ccc(OC)c(NC(=O)C(=O)/C=C(\O)c2cc(OC)ccc2OC)c1	.	10	-0.3	.	.	.	16%	104*	-2.7	-3
COc1ccc2nc(NC(=O)CSC3=NCCS3)sc2c1	.	-13	-0.3	5	10	0.2	23%	15	-1.2	-20
CC(C)(C)c1ccc(C(=O)Nc2ccc(C(=O)N3CCCC3)cc2)cc1	-0.9	1	-0.6	-17	-13	-3.3	.	13	4.2	-4
Cc1ccc(NC(=O)CSc2nnc(-c3ccc(S(=O)(=O)N4CCOCC4)cc3)n2C)cc1	.	4	0.5	.	.	.	-4%	-21	?	-4
CC(C)(C)c1ccc(C2(C)NC(=O)N(CC(=O)Nc3ccc4c(c3)OCO4)C2=O)cc1 (stereo not given)	.	28	-0.2	.	.	.	2%	2	-3.9	-2
O=C(CCCN1C(=O)/C(=C\c2ccccc2)SC1=S)Nc1ccccc1O	6.3	6	-0.1	0	6	9.1	1%	6	1.0	-7
O=[N+]([O-])c1ccc(OCn2cncn2)cc1	-0.8	-10	?	4	-3	3.2	.	-4	4.4	-8
CCCC(C)NC(=O)c1ccccc1SC (stereo not given)	-9.2	-4	0.1	7	6	-9.5	3%	-10	5.0	-3
NC(=NC(=O)c1cccc(C(F)(F)F)c1)c1ccc(C(F)(F)F)cn1	-0.1	7	1.2	-1	-2	0.5	.	-5	0.1	3
O=c1[nH]c(CN2CCN(C/C=C/c3ccccc3)CC2)nc2cc(Cl)ccc12	.	61*	-0.2	.	.	.	29%	32	0.3	-2
COc1cc(CNC2CCCCCCC2)cc(Br)c1OCC#N	4.9	8	2.0	.	.	.	7%	0	0.2	0
NC(=O)c1cc[n+](Cc2ccccc2Cl)cc1	-4.0	-8	-0.1	8	11	0.8	.	-7	-5.7	-4
CCc1ccc(C(=O)NNC(=O)c2cc(S(=O)(=O)N(C)C)ccc2N2CCCC2)cc1	-1.2	2	1.6	-1	-4	-0.9	-2%	0	-3.3	-1
O=C1C2C3C=CC(C3)C2C(=O)N1CCc1ccccc1 (stereo not given)	.	1	0.9	.	.	.	0%	0	-0.8	.
CC1(c2ccc(Cl)cc2)NC(=O)N(CC(=O)NC(=O)NCc2ccco2)C1=O (stereo not given)	.	-33	-0.1	.	.	.	2%	29	5.1	-7
CC(=O)Nc1ccc(OS(=O)(=O)c2ccc(C)cc2C)cc1	0.3	14	-0.8	-34	-53	-3.9	-3%	-1	?	1
CCC(=O)Nc1nc(C)c(C(=O)NC2CCCCC2)s1	.	-2	-0.7	.	.	.	-3%	-2	-12	3
CN(C)c1ccc(/C=N/NC(=O)COc2ccccc2)cc1	3.0	4	0.2	0	2	-4.1	6%	-17	2.1	-10
CCOC(=O)N1CCC(NC(=O)CSc2cc(=O)n(C)c3ccccc23)CC1	.	0	0.5	.	.	.	8%	-8	1.5	12
Cc1ccc(CN(C)C(=O)c2cccc(S(=O)(=O)N3CCc4ccccc43)c2)cc1	-0.8	.	0.4	-2	-27	2.7	20%	.	.	-9
Cc1cc(N2CCCC2)nc2ccc(NC(=S)NCCCOC(C)C)cc12	9.7	41	-0.2	3	-1	-3.1	7%	-10	4.0	1

Continuation.
SMILES	MLL AF4-AF9 inh	T cruzi inh	A1 inh	rRNA inh HTS	rRNA inh HTS OD600	rRNA inh HTS RFP	Vif A3G	Calb FLC	RanGTP-Impb inh	Beta apoptosis
CCOC(=O)c1c(NC(=O)c2ccoc2C)sc(C(=O)N(C)C)c1C	.	-6	1.3	.	.	.	-5%	-8	-1.3	3
CN(C)/C=N/C(=S)Nc1ccc(F)cc1	.	-8	0.7	.	.	.	8%	10	0.8	-14
CC(C)(C)C(=O)Oc1cc(N)n(S(=O)(=O)c2ccccc2)n1	.	4	0.3	.	.	.	-4%&-3%	-3	0.4	-4
Cc1cc(C)n(CC(C)NCc2c(C(=O)N3CCOCC3)nc3c(C)cccn23)n1 (stereo not given)	-12	4	0.1	5	9	-3.7	14%	-1	-3.7	-2
